Bioassay records as filed in PubChem.
KAT2A inh = inhibitors of human GCN5L2 histone acetyltransferase; Q92830; GCN5L2 HAT assay, ThioGlo1 CoA-SH fluorescence; Potency, µM (top dose mostly 58.9 µM), for the others: top-dose activity change, negative = inhibition, usual class: inhibitors; 390,000 tested, 0.21% active; active = well fitted inhibition curve with a large enough effect; inconclusive = small, poorly fitted or top-dose-only effect, or another doubt; inactive = no such curve, though single readings can be large or run the other way
Target sequence (Q92830 whole entry, looked up): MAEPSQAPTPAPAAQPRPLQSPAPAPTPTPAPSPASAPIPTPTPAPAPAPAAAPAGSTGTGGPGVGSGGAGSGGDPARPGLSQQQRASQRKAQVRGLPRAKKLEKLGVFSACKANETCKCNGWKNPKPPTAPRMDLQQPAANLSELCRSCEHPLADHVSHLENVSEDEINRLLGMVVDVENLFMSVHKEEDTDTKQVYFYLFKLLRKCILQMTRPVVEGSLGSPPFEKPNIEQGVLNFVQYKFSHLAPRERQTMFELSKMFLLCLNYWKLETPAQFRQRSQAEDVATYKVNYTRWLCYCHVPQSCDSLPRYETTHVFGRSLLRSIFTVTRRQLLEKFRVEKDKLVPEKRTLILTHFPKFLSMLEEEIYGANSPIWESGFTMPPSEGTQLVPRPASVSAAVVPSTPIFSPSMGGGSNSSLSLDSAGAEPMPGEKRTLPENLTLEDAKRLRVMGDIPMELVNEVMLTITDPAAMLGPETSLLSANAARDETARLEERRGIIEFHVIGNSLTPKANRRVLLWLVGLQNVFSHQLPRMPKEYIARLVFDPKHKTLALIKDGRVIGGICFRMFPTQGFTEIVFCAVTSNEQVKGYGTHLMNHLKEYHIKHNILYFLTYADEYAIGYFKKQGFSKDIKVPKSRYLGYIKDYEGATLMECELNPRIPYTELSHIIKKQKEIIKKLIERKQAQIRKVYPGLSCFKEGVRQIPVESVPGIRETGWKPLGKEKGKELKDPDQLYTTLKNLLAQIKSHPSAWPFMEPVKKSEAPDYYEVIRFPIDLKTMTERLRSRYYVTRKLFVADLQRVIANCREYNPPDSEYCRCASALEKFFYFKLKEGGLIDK
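Enzyme at 20nM final was mixed with library compounds for 15 min at room temperature. Peptide H3(1-25) at 75uM, acetyl-CoA at 70uM and ThioGlo1 at 50uM were then added. Plates were read immediately and after 20 min (Ex340nm/Em540nm).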
Numbers without * were called inactive; ? = inconclusive; & = joins results of further samples; [ ] = dose if it differs, or a comment. % is set by controls: 0 for no effect and ±100 for the full control effect; potency is the fitted concentration of half-maximal effect. Some of the compounds tested, and most or all hits are left out here.

SMILES	KAT2A inh
COc1c(O)ccc(C2NC(=O)NC(C)=C2C(=O)Nc2ccccc2C)c1[N+](=O)[O-] (centres undefined)	-4%
CCOc1ccc(C(=O)Nc2c3c(nn2-c2ccc(C)cc2)CS(=O)C3)cc1OCC (centres undefined)	-26%
CCOC(=O)c1cc(CC)sc1N1C(=O)CC(Sc2ncccc2C(=O)O)C1=O (centres undefined)	-3%
O=C(c1cc2c(s1)-c1ccccc1OC2)N1CCN(c2ccccn2)CC1	-18%
CCNC(=O)NC1(C(=O)Nc2ccc3c(c2)CCC3)CCCCC1	-15%
Cc1ccc(-n2cc(CNCCCn3ccnc3C)c(-c3ccc(F)cc3)n2)cc1	-15%
COc1ccc(Nc2nc3ccccc3c(=O)s2)c(OC)c1	-3%
CNC(=O)CC1C(=O)N(Cc2ccccc2)C(=S)N1NC(=O)c1cccc(F)c1 (centres undefined)	1%
COc1ccc(-n2ncc3c(N4CCN(Cc5ccccc5)CC4)ncnc32)cc1	-19%
CCNc1nc(NC(C)(C)C)nc(N(C#N)CC)n1	3%
COC(=O)c1c(N2C(=O)[C@H]3[C@@H](C2=O)[C@]2(C(=O)Nc4c(C)cc(C)cc42)N2CCC[C@@H]32)sc(C)c1C	-7%
CCOc1ccc2nc(NCCNC(=O)CC)c(C#N)cc2c1	-23%
COc1ccc(NC(=O)CS(=O)CC(=O)Nc2ccc(F)cc2F)cc1 (centres undefined)	-4%
CCOC(=O)C(=O)N(Nc1ccccc1C)c1ccccc1C	2%
O=C(CCc1nnc(-c2ccccc2)o1)NCc1c(F)cccc1F	-2%
Cc1nc(-c2ccccc2)nc2[nH]c(-c3ccccc3)cc(=O)c12	-1%
CCOC(=O)N1CCc2c(sc3c2c(=O)n(-c2ccc(CC)cc2)c(=O)n3Cc2ccc(F)cc2Cl)C1	-3%
CCCC(C)C(=O)Nc1ccc(S(N)(=O)=O)cc1 (centres undefined)	-2%
c1ccc(N2CCN(c3c4c(nc5ncnn35)CCC4)CC2)cc1	-1%
O=S(=O)(NCC1CCN(S(=O)(=O)c2ccccc2)CC1)c1ccccc1	-12%

The closing two records of the section above lead into the next:
SMILES	KAT2A inh
c1ccc(N2CCN(c3c4c(nc5ncnn35)CCC4)CC2)cc1	-1%
O=S(=O)(NCC1CCN(S(=O)(=O)c2ccccc2)CC1)c1ccccc1	-12%
CCc1nn2cc(C(=O)c3ccccc3O)cnc2c1-c1ccc(F)cc1	-3%
CCOC(=O)c1csc(NC(=O)c2ccc(C#N)cc2)n1	-6%
CCCC(=O)Nc1c(C(=O)N2CCN(c3ccccc3)CC2)oc2ccccc12	-2%
CCc1nnc(NC(=O)CSc2nnc(-c3ccoc3C)n2-c2cccc(C)c2)s1	0%
CC(NC(=O)CNC(=O)c1cccs1)c1cccc(C(F)(F)F)c1 (centres undefined)	1%
O=C(NNC1=NCCC1)c1ccc(Br)cc1	0%
CCOC(=O)c1cc(C)n(-c2ccc(Cl)cc2)c1C	-9%
Cc1ccc(CNC(=O)CCC2CCCN(Cc3cccc4cccnc34)C2)o1 (centres undefined)	-11%
Cc1cc(NC(=O)CN(C)S(=O)(=O)c2ccc(-c3ccc(=O)[nH]n3)s2)ccc1Br	1%
CCOc1ccc(N2C(=O)Nc3ccccc3C2(O)C(=O)NCc2ccc3c(c2)OCO3)cc1 (centres undefined)	0%
CC(C)C(C)NC(=O)COc1ccc(S(=O)(=O)N2CCOCC2)cc1Cl (centres undefined)	-16%
Cc1ccc(NC(=O)C2CC(O)CN2C(=O)OCc2ccccc2)c(C)c1 (centres undefined)	-2%
COc1cccc(/C=C/C(=O)OCC(=O)NC(=O)NC2CCCCC2)c1	-7%
c1ccc(-c2cccs2)nc1	-2%
CC1CN(C(=O)c2ccc(NS(=O)(=O)c3cccc(Cl)c3)cc2)CC(C)O1 (centres undefined)	-19%
CCOc1ccc(OCC)c(NC(=O)CSc2nnc(Cn3cnc4ccccc43)n2C)c1	1%
O=C(Cn1c(=O)n(-c2cccc(C(F)(F)F)c2)c(=O)c2sccc21)NCC1CCCO1 (centres undefined)	-5%
COc1ccc2nc(NC(=O)CN3CCOCC3)sc2c1	-3%
CCOC(=O)c1c(C)c(/C=N/Nc2ccccc2)n(C)c1C	-3%
COc1cc(/C=C/C(=O)O)cc2c1OCCO2	-1%
CCOC(=O)CN1Cc2cccc(C(=O)O)c2C1=O	-20%
O=C(CCn1c(=O)oc2ccccc21)NCCCN1CCOCC1	0%
CC1CCN(C(=O)C(C)c2ccc([N+](=O)[O-])cc2)CC1 (centres undefined)	16%
O=C(CN1CCC(NC(=O)c2ccco2)CC1)Nc1cccc2ccccc12	-1%
Cc1cc(Nc2ccccc2F)n2nc(Cc3ccc(Cl)cc3)nc2n1	-8%
Clc1cccc(-c2ccc(C=Nc3ccc(N4CCOCC4)cc3)o2)c1Cl	-5%
CN(C)CCCNC(NC(=O)c1cccs1)C(Cl)(Cl)Cl (centres undefined)	-4%
CCc1ccc(NC(=O)CC(c2ccc(C)cc2)N2Cc3ccccc3C2=O)cc1 (centres undefined)	-14%
CCOC(=O)N1CCN(c2cc(=O)n(-c3ccc(C)cc3)c(=O)[nH]2)CC1	-3%
O=C(NCCN1CCCCC1)Nc1cccc(Cl)c1Cl	-4%
Cc1ccc(C(=O)N2CCCCCC2)cc1S(=O)(=O)Nc1ccccc1	1%
Cc1cc(C)nc(NS(=O)(=O)c2ccc(N3C(=O)C4CC=C(Cl)CC4C3=O)cc2)n1 (centres undefined)	-11%
COc1ccc(N2CCN(C(CNC(=O)C(=O)NCc3ccc(F)cc3)c3cccnc3)CC2)cc1 (centres undefined)	-18%
Cc1ccccc1-c1nnc(SCC(=O)N(C)C2CCS(=O)(=O)C2)n1C (centres undefined)	-1%
COc1nc(Nc2nc3ccccc3c(=O)[nH]2)nc2ccc(C)cc12	-25%
COc1cc(OC)cc(-c2c(-c3cccs3)c3cc(-c4ccc(SC)cc4)ccc3n2C)c1	-8%
COc1ccc(OC)c(C2CC(=O)N(c3cccc(C)c3)C3=C2C(=O)OC3)c1 (centres undefined)	-7%
Cc1cc(C)cc(C(=O)Nc2nnc(SCC(=O)N3CCCc4ccccc43)s2)c1	31%[activator]
CCc1ccccc1NC(=O)C1CCC(CNS(=O)(=O)c2ccc3c(c2)CC(C)N3C(C)=O)CC1 (centres undefined)	-2%
COC(=O)c1cn(CC(=O)N2C(C)CCCC2C)c2ccccc12 (centres undefined)	-1%
O=S(=O)(N/N=C/c1ccc(N2CCOCC2)cc1)c1ccc(Br)cc1	-2%
C=CCSC(CC)(CC)C(N)=O	-7%
CC(C)c1cc(C(=O)Nc2ccc3c(c2)OCO3)no1	?
CCOc1ncccc1C(=O)N1CCCSC1=Nc1ccccc1OC	-11%
COC(=O)CN=C1OC(=O)N2C(=O)C3=C4[C@@H](C[C@H]5C(=O)N(c6ccccc6)C(=O)[C@H]5[C@H]4[C@@]12Cc1ccccc1)[C@H]1C(=O)N(c2ccccc2)C(=O)[C@H]1[C@H]3C	22%
CCCNC(=O)COC(=O)c1ccc(OCC(=O)Nc2ccccc2OC)c(OC)c1	1%
COc1ccc(N2CCN(C(CNS(=O)(=O)c3cc(F)ccc3F)c3cccnc3)CC2)cc1 (centres undefined)	-8%
O=C(Cc1ccccc1)NN1C(=O)C2C3C=CC(C3)C2C1=O (centres undefined)	-5%
O=C(O)c1ccc(CSc2nc3ccc(N4C(=O)C5C6C=CC(C6)C5C4=O)cc3s2)cc1 (centres undefined)	1%
Cc1cc(C)c(C(=O)Nc2ccc(C)c(C)c2)c(CC(C)(C)C(=O)O)c1	-4%
CCc1ccc(NC(=O)C2CC=CCC2C(=O)O)cc1 (centres undefined)	-3%
COc1ccc(S(=O)(=O)N2CCOC2CNC(=O)C(=O)NCc2cccnc2)cc1OC (centres undefined)	17%
CCC1=C(OC(=O)N(CC)CC)N2C(=O)OC(=NCC3CC3)[C@]2(Cc2ccccc2)[C@H]2C1=CC[C@H]1C(=O)N(c3ccccc3)C(=O)[C@H]12	1%
O=C(Oc1cccnc1)c1cc(S(=O)(=O)N2CCOCC2)ccc1Cl	-4%
CC(C)CCNC(=O)C1CCN(S(=O)(=O)c2ccc3c(c2)CC(C)N3C(=O)C2CCC2)CC1 (centres undefined)	1%
COCCOC(=O)c1sc(=S)n(CCOC)c1N	-28%
COc1ccc(C(CC(=O)O)NC(=O)Cc2ccccc2)cc1OC (centres undefined)	-2%
COc1ccc(N(C(=O)c2snc(C(N)=O)c2N)C(C(=O)NCc2ccc(F)cc2)c2ccc(C)o2)c(OC)c1 (centres undefined)	-7%
COCCNC(=O)c1c(NC(=O)c2nc(SC)ncc2Cl)sc2c1CCCC2	-3%
CC1(c2ccccc2)NC(=O)N(CCOc2ccccc2)C1=O (centres undefined)	-2%

Reformatted with the structure last: part of the list above.
KAT2A inh | canonical_smiles
-4% | Cc1cc(C)c(C(=O)Nc2ccc(C)c(C)c2)c(CC(C)(C)C(=O)O)c1
-3% | CCc1ccc(NC(=O)C2CC=CCC2C(=O)O)cc1 (centres undefined)
17% | COc1ccc(S(=O)(=O)N2CCOC2CNC(=O)C(=O)NCc2cccnc2)cc1OC (centres undefined)
1% | CCC1=C(OC(=O)N(CC)CC)N2C(=O)OC(=NCC3CC3)[C@]2(Cc2ccccc2)[C@H]2C1=CC[C@H]1C(=O)N(c3ccccc3)C(=O)[C@H]12
-4% | O=C(Oc1cccnc1)c1cc(S(=O)(=O)N2CCOCC2)ccc1Cl
1% | CC(C)CCNC(=O)C1CCN(S(=O)(=O)c2ccc3c(c2)CC(C)N3C(=O)C2CCC2)CC1 (centres undefined)
-28% | COCCOC(=O)c1sc(=S)n(CCOC)c1N

(continued)
SMILES	KAT2A inh
COc1ccc2sc(N(CCCN(C)C)C(=O)c3nc4ccccc4s3)nc2c1	-8%
CCCNC(=O)CCn1nc(-c2ccccc2)c2ccccc2c1=O	-12%&-5%
Cc1ccc(NC(=O)/C(Cl)=C/c2ccccc2)cc1C	-5%
CCCn1c(C)nnc1SCC(=O)NC1CCCCC1	-2%
COc1ccc(CN(C)c2ccc(-c3nc(-c4ccc(OC)c(OC)c4)no3)cc2[N+](=O)[O-])cc1	-16%
COc1ccc(C(=O)Nc2ccc(C3(C#N)CCCC3)cc2)cc1	10%
CC(=O)N1c2ccc(S(=O)(=O)N3CCOCC3)cc2CC1C (centres undefined)	-1%
CN(CC(=O)NCC1COc2ccccc2O1)S(=O)(=O)c1ccc(Cl)cc1 (centres undefined)	0%
Cc1ccc(NC(=O)C2=CC(c3cccs3)=NS(=O)(=O)N2C)cc1	-7%&-4%
CC1Cn2c(CCc3ccccc3)nnc2S1 (centres undefined)	2%
Cc1cc(C(=O)N2CCCC(N3CCN(c4cccc(Cl)c4)CC3)C2)nc(C)n1 (centres undefined)	3%
O=C1CC(C(=O)Nc2ccccc2)S/C(=N\NC(=O)c2ccccc2Cl)N1 (centres undefined)	-7%
CCN(C(=O)COC(=O)c1cccnc1SC)C1CCCCC1	0%
COc1ccc(C(=O)NCc2csc(C(C)C)n2)cc1OC1CCN(C(C)=O)CC1	-12%
COc1cc(/C=C/C(=O)OCC(=O)c2c[nH]c3ccccc23)ccc1OC(F)F	-10%
CCn1c(SCC(=O)NCc2cccs2)nnc1-c1ccncc1	0%
Cc1c(Cl)cccc1N(CC(=O)N1CCCCCC1)S(C)(=O)=O	-6%
CC1Cc2ccccc2N1CC(=O)NC(=O)NCc1ccco1 (centres undefined)	?
O=[N+]([O-])c1ccc(COc2cccc(CNc3ccc(Br)cc3)c2)cc1	1%
CCn1c(=O)c(C(=O)CC#N)c(N)n(Cc2ccccc2)c1=O	-10%

Some of the entries above, reformatted.
SMILES: CCCNC(=O)CCn1nc(-c2ccccc2)c2ccccc2c1=O
  KAT2A inh: -12%&-5%
SMILES: Cc1ccc(NC(=O)/C(Cl)=C/c2ccccc2)cc1C
  KAT2A inh: -5%
SMILES: CCCn1c(C)nnc1SCC(=O)NC1CCCCC1
  KAT2A inh: -2%

Remaining list, next part.
SMILES	KAT2A inh
CCN(CC)S(=O)(=O)c1ccc(C)c(NC(=O)CN2CCN(Cc3ccccc3)CC2)c1	31%[activator]
COCCCn1cc(C(=O)c2ccccc2OCC(=O)Nc2cccc(F)c2)cc(C#N)c1=O	-5%
COc1ccc(CNC(=O)CN2C(=O)COc3ccc(S(=O)(=O)N4CCCC4)cc32)cc1	4%
O=C(c1ccncc1)N1CCN(C(=O)c2ccco2)CC1	0%
CCOc1ccccc1N1CC(C(=O)Nc2ccc3c(c2)OCCO3)CC1=O (centres undefined)	-5%
COC(CN(C)C(=O)c1cn(C)c2ccc(S(=O)(=O)N(C)C3CCCCC3)cc2c1=O)OC	3%
COCCNC(=O)c1c(-c2ccccc2)c(-c2ccccc2)nn(C)c1=O	-2%
Cn1c(=O)c2c(nc(Br)n2Cc2ccccc2Cl)n(C)c1=O	-4%
CCOC(=O)c1scc(-c2ccc(C)cc2)c1S(=O)(=O)Nc1cc(C)ccc1C	-1%
O=C(CN1C(=O)NC2(CCc3ccccc32)C1=O)NCC(=O)Nc1ccc(F)cc1 (centres undefined)	3%
COCCN(C(=S)Nc1cccc(C)c1C)C(C)c1ccco1 (centres undefined)	0%
O=C(N=C1SCC(=O)N1c1ccccc1Cl)c1ccco1	-10%
Cc1cccc(NC(=O)NN2CCN(C)CC2)c1C	2%
Cc1cccc(NC(=O)C2COc3ccccc3O2)n1 (centres undefined)	-15%
COc1cccc(-c2cc(=O)c3cc(NC(=O)c4ccc(Cl)cc4)ccc3[nH]2)c1	-23%&-6%
O=C(CSc1nc2ccccc2c(=O)n1Cc1ccc(Cl)cc1)NCc1cccs1	3%
